# MT1-MMP reporter: MT1-MMP gene expression reporter suppression – cell-based, luciferase reporter, luminescence (AID 618) | MT1-MMP promoter luciferase reporter cells, luminescence | calls from a first round at 10 µM; hits with a dose series show EC50 in µM | 0.62% of 87,000 active;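 active means over half of the reporter light lost at 10 µM or EC50 under 50 µM; inactive means the rest and hits that failed the dose series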;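 further: actives suppress MT1-MMP promoter-driven transcription so potencies describe inhibitors; HT1080 fibrosarcoma cells; overnight exposure; toxic or luciferase-blocking compounds were not removed from the actives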
# WNV NS2B-NS3 inh: WNV NS2B-NS3 proteinase inhibition | 0.18% of 65,000 active | WNV NS2B-NS3 protease, fluorogenic substrate Ex360/Em465; stronger effect = lower value | P06935 | z-score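 (tested at a level between 10 and 100 µM)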;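 active means z-score at -3 or under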;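 further: score is relative to mean and spread of the compound wells of a plate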
# Target sequence (P06935 1371-1501 limits assumed): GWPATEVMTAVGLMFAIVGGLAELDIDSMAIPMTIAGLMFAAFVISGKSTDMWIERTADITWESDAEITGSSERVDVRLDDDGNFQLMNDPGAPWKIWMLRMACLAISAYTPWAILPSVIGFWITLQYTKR
# Target sequence (P06935 1502-1679 limits assumed): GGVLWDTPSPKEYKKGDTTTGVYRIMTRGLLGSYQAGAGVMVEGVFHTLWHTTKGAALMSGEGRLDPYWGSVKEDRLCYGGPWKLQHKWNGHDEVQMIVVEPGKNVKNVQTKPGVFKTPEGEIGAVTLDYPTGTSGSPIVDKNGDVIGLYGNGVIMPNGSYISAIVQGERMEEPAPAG
# Hsc70: Hsc70 inhibitors, probe displacement, primary screen, biochemical, fluorescence polarization (AID 568) | Hsc70 fluorescence polarization, probe displacement; higher % means a stronger effect; strong numbers were not always called active | displacement, % at 20 µM; hits with a dose series show IC50 in µM | 83,000 tested, under 10 active;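 active means displacement above 50% without optical interference and an IC50 on retest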;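 further: ATPase domain with a fluorescein-tagged ATP probe; 0% = vehicle and 100% = excess ADP; read after one hour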
# * hit, by the source's call; i = inactive; / = not tested or not shown. Not a hit list; about 0.87% have a hit in one of these screens.
Compound | MT1-MMP reporter | WNV NS2B-NS3 inh | Hsc70
COc1ccc2cc3cc(C(=O)NCCCN4CCOCC4)oc3nc2c1 | i | 2.6 | -5.0%
NC(=O)c1nc(N2CCOCC2)nc(N2CCOCC2)n1 | i | 0.08 | -3.2%
O=C(Nc1ccc2ccccc2c1)c1cnccn1 | i | -0.14 | -17%
COC(=O)C(NC(=O)c1ccccc1)=C1C=C(C)OC(C)=C1 | i | -1.2 | 7.5%
O=C(c1ccco1)N(CCCN1CCOCC1)c1nc(-c2ccc(F)cc2)cs1 | i | -0.93 | -4.7%
c1cnc2c(OCc3cn4cccnc4n3)cccc2c1 | i | / | 1.5%
CCc1ccc(N(C)S(=O)(=O)c2ccc3[nH]cc(C(=O)NCCN4CCOCC4)c(=O)c3c2)cc1 | i | / | 1.6%
CCOC(=O)c1cc(C#N)c(NCc2ccccc2)nc1C | i | -0.65 | -2.1%
COc1ccccc1-n1cnc(N)c1C(=O)c1ccccc1 | i | -0.94 | -1.6%
Cc1ccc(CNC(=O)CCS(=O)(=O)c2cc(Br)cc3c2N(C(=O)C2CC2)CC3)o1 | i | -0.79 | -2.6%
Cc1nc(-c2ccccc2)cs1 | i | / | 0.7%
CCOc1ccccc1-n1c(SCC(=O)NC(C)(C)C)nnc1-c1ccoc1C | i | 1.8 | 1.4%
Cc1cccc(N2CCN(C(=O)CCCSc3nc4ccccc4[nH]3)CC2)c1C | i | / | -2.7%
O=c1oc(-c2cccnc2)nc2ccccc12 | i | -0.36 | 1.2%
CCN=C1SC(CC(=O)NC2CCCCC2)C(=O)N1CC (centres undefined) | i | 0.95 | -5.1%

# Carrying on:
Compound | MT1-MMP reporter | WNV NS2B-NS3 inh | Hsc70
Cc1cc2cc(CN3C(=O)c4ccccc4C3=O)ccc2n1C | i | -1 | 0.0%
C=CCc1cc(OC)ccc1OCCON1C(=O)CCC1=O | i | -0.38 | 0.1%
CCN(CCCNC(=O)C1CCN(S(=O)(=O)c2cnc[nH]2)CC1)c1cccc(C)c1 | i | -0.87 | 4.7%
CCCNS(=O)(=O)c1ccc(OCC(=O)NCCC2=CCCCC2)cc1 | i | / | -1.7%
Cc1ccc(OCC(=O)N2CCN(C3=NS(=O)(=O)c4ccccc43)CC2)cc1 | i | -0.72 | 1.3%
CSc1nc(N)nc(SCC(=O)C23CC4CC(CC(C4)C2)C3)c1C#N | i | 1 | -1.1%
Cc1ccc(S(=O)(=O)c2cc3c(=O)n4ccccc4nc3n(CC3CCCO3)c2=N)cc1 (centres undefined) | i | -0.31 | -0.8%
O=C(CN1C(=O)c2cccc3cccc1c23)NCc1ccccn1 | i | / | 0.5%
Cc1nc(SCC(=O)NCc2ccco2)c2oc3ccccc3c2n1 | i | -0.18 | 8.4%
CCOC(=O)c1cnc2c(Cl)cc(Cl)cc2c1NCCOCCO | i | 0.81 | -4.9%
N#CCSc1nnc2c(Cl)cc(Cl)cn12 | i | -0.71 | 2.4%
COc1ccc(-c2nc(C#N)c(NCCCn3ccnc3)o2)cc1OC | i | / | 1.6%
COc1ccc(-c2csc(Cc3nnc4n3CCCCC4)n2)cc1OC | i | -0.46 | 5.5%
O=C(NCCCN1CCN(c2ccccc2F)CC1)Nc1ccc(F)cc1 | i | 1.8 | -1.8%
COc1ccc(-c2cnc3nc[nH]c(=O)c3n2)cc1 | i | / | 4.5%

# Additional structures follow.
Compound | MT1-MMP reporter | WNV NS2B-NS3 inh | Hsc70
CCOC(=O)CC(=O)CSc1ccc2nnc(-c3ccccc3)n2n1 | i | -0.57 | -6.6%
O=C(NC1CCCCC1)n1c(=O)oc2ccccc21 | i | -0.45 | -1.2%
Cc1nn(Cc2ccccc2)c(Cl)c1C(=O)OCc1nnc(-c2ccccc2)o1 | i | 0.23 | 6.5%
Cc1ccc(C2C3=C(CC(C)(C)CC3=O)NC3=C2C(=O)CC(C)(C)C3)o1 | i | -0.22 | 2.8%
O=c1[nH]n(-c2ncnc3c2cnn3-c2ccccc2)c(=O)c2ccccc12 | i | -0.11 | 6.6%
CC(C)(C)OC(=O)N1CCC[C@H]1c1nnc(SCc2ccccc2Cl)o1 | i | 0.23 | -2.6%
O=C1OC(Nc2ncccn2)c2ccccc21 (centres undefined) | i | / | 2.4%
O=C(CN1C2CCC1CC(NC(=O)C1CC1)C2)NCc1ccccc1 (centres undefined) | i | 0.01 | -1.0%
CCOc1ccc(-n2c(SCC(=O)Nc3ccc4c(c3)OCO4)nc3c(c2=O)SCC3)cc1 | i | -0.21 | -2.2%
CCSc1nc2nn(-c3ccccc3)c(=O)c-2c2n1CCCCC2 | i | / | 4.5%
Clc1ccc(C(c2nnnn2C2CCCC2)N2CCSCC2)cc1 (centres undefined) | i | -1.1 | 4.4%
CCOC(=O)C1CCCN(C(=O)c2cn(CC)c(=O)c3cc(OC)c(OC)cc23)C1 (centres undefined) | i | -0.41 | 0.8%
c1ccc(OCc2nc3ccccc3[nH]2)cc1 | i | 0.4 | -1.1%
COc1cc(C2C(C(=O)Nc3ccccc3OC)=C(C)Nc3ncnn32)ccc1O (centres undefined) | i | 0.16 | 4.1%
O=P(O)(CCCCP(=O)(O)CCc1ccccc1)CCc1ccccc1 | i | 0.39 | -0.7%

# The list continues:
SMILES	MT1-MMP reporter	WNV NS2B-NS3 inh	Hsc70
O=S(=O)(Cc1cc(Sc2ccc(Cl)cc2)nc(-c2ccccc2)n1)c1ccccc1	i	/	1.2%
Cc1ccsc1C1NC(=O)c2c(sc3c2CCN(C)C3)N1 (centres undefined)	i	0.18	-1.0%
CCOC(=O)Cn1c(=N)n(CCOc2ccc(OC)cc2)c2ccccc21	i	/	7.5%
CCn1c(CSc2nc3ccccc3n2C)nc2ccccc21	i	1.6	3.2%
Cc1cc(C)nc(-n2nc(C)c3c(=O)[nH]c(C(F)(F)F)nc32)n1	i	-0.2	-1.1%
CCOC(=O)C(NC(=O)N1CCCCC1)(c1ccccc1)C(F)(F)F (centres undefined)	i	-0.17	-6.4%
COc1ccc(-c2nnn(CC(=O)N(C3CCCCC3)C(C)C(=O)NC3CCCC3)n2)cc1OC (centres undefined)	i	0.59	-0.5%
CC1(c2ccccc2)CC(c2ccccc2)=Nc2nonc2N1 (centres undefined)	i	0.56	-0.7%
CCOc1ccc(-c2nc(C#N)c(N3CCN(CC)CC3)o2)cc1	i	0.06	-1.6%
O=C(CN1C(=O)c2ccccc2S1(=O)=O)N1CCc2ccccc2C1	i	-0.06	1.9%
Cc1cc(C)c(-c2cc(C(F)(F)F)no2)c(=O)[nH]1	i	0.93	8.0%
CCCc1cc(C(=O)N2CCN(c3ccccc3C)CC2)cs1	i	-0.01	2.7%
Clc1ncnc2scc(C3COc4ccccc4O3)c12 (centres undefined)	i	/	-3.7%
CCOC(=O)Cc1csc(SCC(=O)c2c(N)n(CC(C)C)c(=O)n(C)c2=O)n1	i	-0.06	-0.1%
COc1ccc(F)cc1S(=O)(=O)N1CCC(C(N)=O)CC1	i	-0.6	-2.5%
COC(=O)c1ccc(-c2nc3ccccc3o2)cc1	i	-0.76	2.9%
COc1ccc(Nc2nc(Nc3ccc(OC)cc3)nc(-n3[nH]c(=O)c(C)c3C)n2)cc1	i	0.77	1.6%
CCCS(=O)(=O)C(=C(Nc1ccccc1)Nc1ccccc1)S(=O)(=O)CCC	i	/	3.2%
C=CCn1c(SCC(=O)NCc2ccccc2)nnc1-c1cc(Br)ccc1O	i	/	0.5%
CC(C)(C)C(=O)[C@@H]1[C@@H]2C(=O)N(C3CCCCC3)C(=O)[C@@H]2[C@H]2c3ccccc3C=CN12	i	/	0.7%
O=C(CSc1nnc(NC(=O)c2ccco2)s1)NC1CCCCC1	i	1.2	-3.3%
COc1ccc(CNC(=O)CN(C(=O)c2cc3sccc3n2C)C2CCCC2)cc1	i	-0.55	-3.5%
COc1ccccc1-c1nnc(SC2CCc3ccccc3NC2=O)s1 (centres undefined)	i	/	5.2%
Cc1cccnc1NC(=O)c1c(O)c2ccccc2n(C)c1=O	i	-1.6	-2.6%
COc1cc(OC)c(C2CC(=O)N3CN(c4ccc(C)cc4)CSC3=C2C#N)cc1OC (centres undefined)	i	0.39	-4.6%
Cc1ccc2c(=O)c(C(=O)NCc3cccs3)c[nH]c2c1	i	/	5.5%
c1ccc(-n2ncc3c2ncn2nc(CSc4nc5ccccc5s4)nc32)cc1	i	0.35	-0.1%
Cc1ccc(Cc2nnc3n(-c4cccc(C)c4)nc(C(=O)c4ccccc4)n3c2=O)cc1	i	/	3.0%
CCC(=O)Nc1nonc1-c1nc2ccccc2n1CCC(C)C	i	-0.36	-7.1%
C=CCNc1ncnc2c1ncn2C1OC(CO)C(O)C1O (centres undefined)	i	-0.55	0.6%

# Profiles, looked up by structure. Screens in order: MT1-MMP reporter	WNV NS2B-NS3 inh	Hsc70
# Cc1ccc(Cc2nnc3n(-c4cccc(C)c4)nc(C(=O)c4ccccc4)n3c2=O)cc1 across the screens: i	/	3.0%
# O=C1OC(Nc2ncccn2)c2ccccc21 (centres undefined) across the screens: i	/	2.4%
# CCOc1ccc(-n2c(SCC(=O)Nc3ccc4c(c3)OCO4)nc3c(c2=O)SCC3)cc1 across the screens: i	-0.21	-2.2%
# O=C(CN1C(=O)c2ccccc2S1(=O)=O)N1CCc2ccccc2C1 across the screens: i	-0.06	1.9%
# COc1cc(C2C(C(=O)Nc3ccccc3OC)=C(C)Nc3ncnn32)ccc1O (centres undefined) across the screens: i	0.16	4.1%

# Remaining list, next part.
SMILES	MT1-MMP reporter	WNV NS2B-NS3 inh	Hsc70
COC(=O)c1nc(-c2ccccc2)oc1N(C)C	i	0.87	-3.6%
CCN(c1ccccc1)S(=O)(=O)c1ccc(F)cc1	i	0.12	3.1%
O=C1CC(C(=O)Nc2ccc(O)c(C(=O)O)c2)C(c2ccccc2)O1 (centres undefined)	i	1.2e-05	-2.7%
CC(C)(C)SCCNS(=O)(=O)c1ccc(F)cc1	i	0.13	5.8%
CC(C)=CC(=O)Nc1nnc(-c2cccnc2)s1	i	0.39	-0.1%
COc1ccc(NC(=O)C=C(C)C)cc1Cl	i	-0.6	6.9%
CCC(=O)N1CCc2cc(Br)cc(S(=O)(=O)NCCN3CCOCC3)c21	i	-0.97	4.1%
Oc1ccc2ccc3cccc[n+]3c2c1	i	/	154%
COCCn1c(C)cc(C(=O)CSc2nc(C)cc(C)c2C#N)c1C	i	-1.2	0.6%
NC(=O)CSc1nnc(-c2ccc(O)cc2)n1Cc1ccco1	i	-0.31	2.1%
COc1ccc(OC)c(-n2c(C)nc3cc(C(=O)O)ccc32)c1	i	0.97	-2.0%
Cc1c(CCC(C)C)c(=O)n2c([nH]c3ccccc32)c1C#N	i	/	6.3%
Oc1ccc2ccccc2c1/C=N/n1cnnc1	i	0.49	-1.2%
COc1ccc(C2SCCN2S(=O)(=O)c2ccc(F)cc2)cc1OC (centres undefined)	i	0.84	4.1%
CCOC(=O)c1cnc(SCc2nc(N)nc(Nc3ccccc3OC)n2)nc1N	i	/	3.6%
Cc1ccc(-n2c(C)cc(C3N=C(N)Nc4nc5ccccc5n43)c2C)c(C)c1 (centres undefined)	i	0.36	2.4%
CCOC(=O)CSc1nc(NCc2ccco2)c2ccccc2n1	i	0.22	3.9%
O=C(c1ccc(N2CCOCC2)nc1)N1CCCCC1	i	-0.55	-4.2%
c1ccc(-n2ncc3c(N4CCN(c5ccccn5)CC4)nc(N4CCCCC4)nc32)cc1	i	1.5	-1.6%
O=C(O)CCCNC1=NCCC1	i	-1.1	1.0%
CCn1ncc(C2=NOC(C(=O)NCCc3ccccc3)C2)c1C (centres undefined)	i	-0.63	6.8%
CC1CCCC(C)N1C(=O)CN1C(=O)C(C)(C)Oc2ccc(C(=O)NC3CCCC3)cc21 (centres undefined)	i	0.95	-2.3%
CC(=O)N1CCN2C(=O)C1CCCC(=O)c1cc(C(C)C)ccc12 (centres undefined)	i	/	-4.5%
O=C(CCc1ccccc1)Nc1c(F)cccc1F	i	/	0.3%
N#CC1=C(N)Oc2n[nH]c(-c3ccccc3)c2C1c1ccncc1 (centres undefined)	i	-1.5	0.3%
COc1cccc(Nc2nnc(SCC(=O)N(CC(C)C)CC(C)C)s2)c1	i	/	-0.7%
COC(=O)CNC(=O)CSc1nnc(-c2ccc(OC)cc2)n1CC(C)C	i	/	0.5%
CC(C)OCCCNC(=O)CNC(=O)c1cccs1	i	-1.9	-2.6%
COC(=O)c1ccccc1NC(=O)CNc1cc(Cl)ccc1N1CCOCC1	i	-0.42	-6.6%
CCc1nnc(NC(=O)CSc2nnc(-c3cccnc3)n2CC)s1	i	/	-4.3%

# (listing goes on)
SMILES	MT1-MMP reporter	WNV NS2B-NS3 inh	Hsc70
CC(=O)SCCC(=O)Nc1ccccc1	i	1.7	2.0%
O=S(=O)(Nc1nc2ccc(S(=O)(=O)N3CCCC3)cc2s1)c1ccc(F)cc1	i	/	-5.7%
Clc1ccc(Cc2nnc(-c3cccs3)o2)cc1	i	-0.97	2.1%
CCOC(=O)Cn1nnnc1CN(Cc1ccccc1)Cc1cc2cc(CC)ccc2[nH]c1=O	i	0.68	-0.7%
COc1ccc(C(=O)Nc2nc3nc(-c4ccccc4)cc(=O)n3[nH]2)cc1	i	0.06	-2.0%

# Screens (PubChem)
